# Ran importin: inhibitors of Ran–importin-beta complex formation, primary screen, biochemical, CFP-Ran/YFP-importin-beta FRET, RCC1, cell-free (AID 434961). CFP-Ran/YFP-importin-beta FRET, cell-free; stronger effect = higher value. 7,700 compounds, 0.2% hits. inhibition, %;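 active = more than half of the replicate wells above 15% inhibition; inconclusive = exactly half above it; inactive = fewer than half above it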;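 note: 0% = DMSO wells and 100% inhibition = RanGDP control wells on each plate; stock of unstated strength diluted about 400-fold; mean of two wells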
# Active calls of the source: *; u = inconclusive.
> C[C@H](CO)N1C[C@H](C)[C@@H](CN(C)C(=O)Nc2ccc(F)cc2)Oc2ccc(NC(=O)Cc3cn(C)c4ccccc34)cc2C1=O
  Ran importin: -4.9
> CC(C)NC(=O)N(C)C[C@@H]1OCCCC[C@@H](C)Oc2ccc(NC(=O)Nc3ccc(C(F)(F)F)cc3)cc2C(=O)N([C@H](C)CO)C[C@@H]1C
  Ran importin: 1.5
> COc1ccc(NC(=O)Nc2ccc3c(c2)C(=O)N([C@@H](C)CO)C[C@@H](C)[C@H](CN(C)S(=O)(=O)c2cccs2)O3)cc1
  Ran importin: 7.4
> CCCN(C)C[C@@H]1Oc2ncc(Br)cc2C(=O)N([C@H](C)CO)C[C@@H]1C
  Ran importin: 7.6
> C[C@H]1CN([C@@H](C)CO)C(=O)Cc2cc(NS(=O)(=O)c3ccc(Cl)cc3)ccc2O[C@H]1CN(C)CC1CCCCC1
  Ran importin: 0.3
> CC(C)NC(=O)N(C)C[C@@H]1Oc2ccc(N(C)C)cc2CC(=O)N([C@@H](C)CO)C[C@@H]1C
  Ran importin: -3.6
> C[C@@H]1CN([C@@H](C)CO)C(=O)c2cc(NC(=O)CCCN(C)C)ccc2O[C@@H](C)CCCCO[C@H]1CN(C)Cc1ccccc1
  Ran importin: -0.3
> C[C@@H]1CN([C@H](C)CO)C(=O)c2cccc(NC(=O)c3ccncc3)c2O[C@@H]1CN(C)Cc1ccc(C(F)(F)F)cc1
  Ran importin: 1.4
> COc1ccc(CN(C)C[C@@H]2Oc3c(NS(C)(=O)=O)cccc3C(=O)N([C@H](C)CO)C[C@@H]2C)cc1
  Ran importin: -6.0
> C[C@@H]1CCCCO[C@H](CN(C)S(=O)(=O)c2cccs2)[C@@H](C)CN([C@H](C)CO)C(=O)c2cc(N(C)C)ccc2O1
  Ran importin: -7.1
> C[C@H](CO)N1C[C@H](C)[C@@H](CN(C)Cc2ccc(C(=O)O)cc2)Oc2ccc(NC(=O)Cc3ccccc3)cc2C1=O
  Ran importin: 2.5
> C[C@H]1CN([C@@H](C)CO)C(=O)CCCn2cc(nn2)CO[C@@H]1CN(C)Cc1cccc2c1OCCCO2
  Ran importin: 0.3
> COc1ccc(S(=O)(=O)Nc2ccc3c(c2)CC(=O)N([C@@H](C)CO)C[C@@H](C)[C@@H](CN(C)CC2CC2)O3)cc1
  Ran importin: 2.5
> Cc1noc(C)c1S(=O)(=O)Nc1ccc2c(c1)C(=O)N([C@H](C)CO)C[C@@H](C)[C@@H](CN(C)C)O2
  Ran importin: -0.6
> C[C@H]1CN([C@@H](C)CO)C(=O)c2cc(NC(=O)c3ccncc3)ccc2O[C@H]1CN(C)C(=O)Nc1ccc2c(c1)OCO2
  Ran importin: -5.9
> CNC[C@H]1Oc2ccc(NS(=O)(=O)c3c(C)noc3C)cc2C(=O)N([C@H](C)CO)C[C@@H]1C
  Ran importin: 0.9
> COc1ccc(CN(C)C[C@H]2Oc3ccc(NS(=O)(=O)c4ccc(OC)cc4)cc3C(=O)N([C@@H](C)CO)C[C@@H]2C)cc1
  Ran importin: -3.9
> C[C@@H]1CN([C@@H](C)CO)C(=O)Cc2cc(NC(=O)Cc3cn(C)c4ccccc34)ccc2O[C@@H]1CN(C)S(=O)(=O)c1cccs1
  Ran importin: -1.7
> C[C@H](CO)N1C[C@H](C)[C@H](CN(C)C(=O)Nc2ccc(C(F)(F)F)cc2)Oc2c(NC(=O)C3CCOCC3)cccc2C1=O
  Ran importin: -3.3
> C[C@H](CO)N1C[C@H](C)[C@H](CN(C)C(=O)Nc2ccccc2)Oc2ccc(NC(=O)Cn3cnnn3)cc2CC1=O
  Ran importin: -2.6
> C[C@@H]1CN([C@@H](C)CO)C(=O)CCCn2cc(nn2)CO[C@H]1CN(C)S(=O)(=O)c1ccc2c(c1)OCCCO2
  Ran importin: u
> C[C@H](CO)N1C[C@H](C)[C@H](CN(C)C)OCc2cn(nn2)CCCC1=O
  Ran importin: 5.8
> C[C@@H]1CN([C@@H](C)CO)C(=O)Cc2cc(NC(=O)Nc3ccc(C(F)(F)F)cc3)ccc2O[C@@H]1CN(C)Cc1ccc(C(=O)O)cc1
  Ran importin: 2.8
> C[C@@H]1CN([C@H](C)CO)C(=O)c2cc(NC(=O)C3CC3)ccc2O[C@@H]1CN(C)Cc1ccc(C(=O)O)cc1
  Ran importin: -3.6
> CC(C)NC(=O)N(C)C[C@H]1OCCCC[C@@H](C)Oc2ccc(NC(=O)Cc3ccccc3)cc2C(=O)N([C@H](C)CO)C[C@@H]1C
  Ran importin: -3.2

> COc1ccc(S(=O)(=O)Nc2ccc3c(c2)C(=O)N([C@@H](C)CO)C[C@H](C)[C@H](CN(C)CC2CC2)O3)cc1
  Ran importin: -3.6
> COc1ccc(NC(=O)Nc2cccc3c2O[C@@H](CN(C)CC2CC2)[C@H](C)CN([C@@H](C)CO)C3=O)cc1
  Ran importin: 4.5
> C[C@H]1CN([C@@H](C)CO)C(=O)Cc2cc(NC(=O)C3CC3)ccc2O[C@H]1CN(C)Cc1ccc(C(F)(F)F)cc1
  Ran importin: -0.9
> C[C@H]1CN([C@@H](C)CO)C(=O)Cc2cc(NC(=O)Cc3cn(C)c4ccccc34)ccc2O[C@H]1CN(C)CC1CC1
  Ran importin: -0.1
> C[C@@H]1CN([C@@H](C)CO)C(=O)CCCn2cc(nn2)CO[C@@H]1CN(C)C(=O)c1cc(-c2ccccc2)on1
  Ran importin: -1.7
> C[C@H](CO)N1C[C@H](C)[C@@H](CN(C)C(=O)Nc2ccccc2)Oc2c(NS(=O)(=O)c3ccccc3)cccc2C1=O
  Ran importin: 4.4
> C[C@H](CO)N1C[C@H](C)[C@H](CN(C)C(=O)Cc2ccccc2)OCCCC[C@H](C)Oc2ccc(NC(=O)Nc3ccc(F)cc3)cc2C1=O
  Ran importin: -2.4
> COc1ccc(S(=O)(=O)Nc2ccc3c(c2)CC(=O)N([C@H](C)CO)C[C@@H](C)[C@@H](CN(C)S(=O)(=O)c2cn(C)cn2)O3)cc1
  Ran importin: -1.6
> C[C@H](CO)N1C[C@H](C)[C@@H](CN(C)C(=O)Nc2ccccc2)Oc2ccc(NC(=O)c3ccncc3)cc2C1=O
  Ran importin: 5.6
> COc1ccc(S(=O)(=O)N(C)C[C@@H]2Oc3c(NC(=O)C4CCOCC4)cccc3C(=O)N([C@@H](C)CO)C[C@H]2C)cc1
  Ran importin: -2.5
> Cc1noc(C)c1S(=O)(=O)N(C)C[C@@H]1Oc2ccc(NS(=O)(=O)c3ccc(Cl)cc3)cc2C(=O)N([C@@H](C)CO)C[C@@H]1C
  Ran importin: -2.9
> C[C@H]1CN([C@@H](C)CO)C(=O)c2cccc(NS(C)(=O)=O)c2O[C@@H]1CN(C)C(=O)NC1CCCCC1
  Ran importin: 1.3
> C[C@H](CO)N1C[C@H](C)[C@@H](CN(C)Cc2ccncc2)Oc2ccc(N(C)C)cc2CC1=O
  Ran importin: -1.0
> COc1ccc(S(=O)(=O)Nc2cccc3c2O[C@@H](CN(C)Cc2ccc(C(F)(F)F)cc2)[C@@H](C)CN([C@@H](C)CO)C3=O)cc1
  Ran importin: 2.1
> COc1ccc(CN(C)C[C@H]2Oc3ccc(NS(=O)(=O)c4ccc(Cl)cc4)cc3C(=O)N([C@H](C)CO)C[C@@H]2C)cc1
  Ran importin: 3.0
> C[C@H](CO)N1C[C@H](C)[C@@H](CN(C)C(=O)Nc2ccccc2C(F)(F)F)OCc2cn(nn2)CCCC1=O
  Ran importin: -1.7
> C[C@H]1CN([C@@H](C)CO)C(=O)c2cccc(NS(=O)(=O)c3cn(C)cn3)c2O[C@@H]1CN(C)S(=O)(=O)c1cn(C)cn1
  Ran importin: 1.4
> Cc1noc(C)c1S(=O)(=O)Nc1ccc2c(c1)CC(=O)N([C@H](C)CO)C[C@H](C)[C@@H](CN(C)C(=O)Nc1ccccc1)O2
  Ran importin: 2.7
> Cc1noc(C)c1NC(=O)N(C)C[C@H]1Oc2ccc(NC(=O)c3ccncc3)cc2CC(=O)N([C@H](C)CO)C[C@H]1C
  Ran importin: -3.8
> C[C@H](CO)N1C[C@H](C)[C@@H](CN(C)S(=O)(=O)c2cccs2)Oc2ccc(NC(=O)NC3CCCCC3)cc2C1=O
  Ran importin: 1.8
> CNC[C@H]1OCCCC[C@@H](C)Oc2ccc(NC(=O)Nc3ccccc3)cc2C(=O)N([C@@H](C)CO)C[C@H]1C
  Ran importin: 4.2
> C[C@@H]1CN([C@@H](C)CO)C(=O)c2cc(NC(=O)Nc3ccc4c(c3)OCO4)ccc2O[C@H]1CN(C)CC1CCCCC1
  Ran importin: 2.0
> C[C@@H]1CN([C@@H](C)CO)C(=O)Cc2cc(NC(=O)Cc3cn(C)c4ccccc34)ccc2O[C@H]1CN(C)S(=O)(=O)c1cccs1
  Ran importin: -0.6
> CC(C)NC(=O)Nc1ccc2c(c1)C(=O)N([C@@H](C)CO)C[C@@H](C)[C@@H](CN(C)C(=O)CCCN(C)C)OCCCC[C@@H](C)O2
  Ran importin: -0.1
> COc1ccc(S(=O)(=O)Nc2cccc3c2O[C@H](CN(C)Cc2ccncc2)[C@H](C)CN([C@H](C)CO)C3=O)cc1
  Ran importin: -0.8

# An excerpt from above in order of the Ran importin value, high to low.
> COc1ccc(NC(=O)Nc2cccc3c2O[C@@H](CN(C)CC2CC2)[C@H](C)CN([C@@H](C)CO)C3=O)cc1
  Ran importin: 4.5
> Cc1noc(C)c1S(=O)(=O)Nc1ccc2c(c1)CC(=O)N([C@H](C)CO)C[C@H](C)[C@@H](CN(C)C(=O)Nc1ccccc1)O2
  Ran importin: 2.7
> C[C@H](CO)N1C[C@H](C)[C@@H](CN(C)S(=O)(=O)c2cccs2)Oc2ccc(NC(=O)NC3CCCCC3)cc2C1=O
  Ran importin: 1.8

# Carrying on.
> C[C@@H]1CCCCO[C@@H](CN(C)Cc2ccncc2)[C@@H](C)CN([C@H](C)CO)C(=O)c2cc(N(C)C)ccc2O1
  Ran importin: 3.5
> C[C@@H]1CN([C@@H](C)CO)C(=O)c2cc(NS(=O)(=O)c3ccccc3)ccc2O[C@H]1CN(C)C
  Ran importin: 1.5
> C[C@H](CO)N1C[C@H](C)[C@@H](CN(C)C(=O)Nc2ccc(N3CCCCC3)cc2)OCc2cn(nn2)CCCC1=O
  Ran importin: 0.4
> C[C@H](CO)N1C[C@H](C)[C@@H](CN(C)Cc2ccc(C(F)(F)F)cc2)Oc2c(NC(=O)c3ccncc3)cccc2C1=O
  Ran importin: 0.6
> C[C@@H]1CCCCO[C@@H](CN(C)C(=O)CCC(F)(F)F)[C@@H](C)CN([C@H](C)CO)C(=O)c2cc(NC(=O)c3ccncc3)ccc2O1
  Ran importin: u
> COc1ccc(NC(=O)N(C)C[C@H]2Oc3ccc(NS(=O)(=O)c4ccccc4)cc3C(=O)N([C@H](C)CO)C[C@H]2C)cc1
  Ran importin: -7.2
> C[C@@H]1CN([C@H](C)CO)C(=O)c2cc(NC(=O)NC3CCCCC3)ccc2O[C@H]1CN(C)Cc1ccc(C(=O)O)cc1
  Ran importin: 3.5
> C[C@@H]1CN([C@@H](C)CO)C(=O)c2cc(NS(=O)(=O)c3cccs3)ccc2O[C@@H](C)CCCCO[C@H]1CN(C)S(=O)(=O)c1cccs1
  Ran importin: -7.3
> Cc1noc(C)c1NC(=O)N(C)C[C@@H]1Oc2ccc(NC(=O)Cc3cn(C)c4ccccc34)cc2CC(=O)N([C@@H](C)CO)C[C@H]1C
  Ran importin: 4.1
> C[C@H](CO)N1C[C@H](C)[C@H](CN(C)S(=O)(=O)c2cn(C)cn2)Oc2ccc(NC(=O)Cc3cn(C)c4ccccc34)cc2CC1=O
  Ran importin: -2.9
> C[C@H](CO)N1C[C@H](C)[C@H](CN(C)S(=O)(=O)c2ccc(Oc3ccccc3)cc2)OCc2cn(nn2)CCCC1=O
  Ran importin: 0.5
> COc1ccc(S(=O)(=O)N(C)C[C@H]2Oc3ccc(NC(=O)Nc4ccc(C(F)(F)F)cc4)cc3C(=O)N([C@@H](C)CO)C[C@H]2C)cc1
  Ran importin: -3.5
> C[C@H]1CN([C@@H](C)CO)C(=O)Cc2cc(NC(=O)Cn3cnnn3)ccc2O[C@@H]1CN(C)C(=O)NC1CCCCC1
  Ran importin: -1.7
> COc1ccc(CN(C)C[C@H]2OCCCC[C@@H](C)Oc3ccc(NC(=O)Nc4c(C)noc4C)cc3C(=O)N([C@@H](C)CO)C[C@H]2C)cc1
  Ran importin: 1.8
> CNC[C@H]1Oc2ccc(NC(=O)Nc3ccc4c(c3)OCO4)cc2C(=O)N([C@@H](C)CO)C[C@H]1C
  Ran importin: -4.2
> C[C@@H]1CCCCO[C@H](CN(C)C(=O)Nc2ccccc2)[C@@H](C)CN([C@H](C)CO)C(=O)c2cc(NC(=O)c3ccccc3)ccc2O1
  Ran importin: 0.6
> C[C@@H]1CN([C@H](C)CO)C(=O)c2cc(NC(=O)CCN3CCOCC3)ccc2O[C@H]1CN(C)C(=O)Nc1ccc(F)cc1
  Ran importin: 3.2
> C[C@@H]1CN([C@@H](C)CO)C(=O)Cc2cc(NC(=O)CCN3CCOCC3)ccc2O[C@@H]1CN(C)S(=O)(=O)c1cccs1
  Ran importin: 3.5
> COc1ccc(NC(=O)Nc2ccc3c(c2)C(=O)N([C@@H](C)CO)C[C@@H](C)[C@@H](CN(C)S(=O)(=O)c2cccs2)O3)cc1
  Ran importin: 2.3
> C[C@H]1CN([C@@H](C)CO)C(=O)Cc2cc(NC(=O)Cc3cn(C)c4ccccc34)ccc2O[C@@H]1CN(C)C(=O)NC1CCCCC1
  Ran importin: -1.9
> Cc1noc(C)c1S(=O)(=O)N(C)C[C@@H]1Oc2ccc(NS(=O)(=O)c3cccs3)cc2CC(=O)N([C@H](C)CO)C[C@@H]1C
  Ran importin: -1.5
> Cc1cc(C(=O)Nc2cccc3c2O[C@H](CN(C)Cc2ccc(C(F)(F)F)cc2)[C@@H](C)CN([C@H](C)CO)C3=O)n(C)n1
  Ran importin: u
> Cc1noc(C)c1S(=O)(=O)N(C)C[C@H]1OCCCC[C@H](C)Oc2ccc(NC(=O)CCCN(C)C)cc2C(=O)N([C@H](C)CO)C[C@H]1C
  Ran importin: 2.5
> C[C@@H]1CN([C@H](C)CO)C(=O)c2cc(NC(=O)Nc3ccc4c(c3)OCO4)ccc2O[C@H]1CN(C)C(=O)Nc1ccc(C(F)(F)F)cc1
  Ran importin: 0.2

# Assay outcomes from PubChem BioAssay.

# A portion of the library, so the mix of outcomes need not match the whole.
